Screens deposited in PubChem BioAssay by National Center for Advancing Translational Sciences (NCATS).
TRPML1 inh: inhibitors of human TRPML1 channel; Q9GZU1; TRPML1-inducible cells, Ca2+ dye fluorescence, FDSS; active compounds read low; inhibition of EC80 agonist-evoked calcium signal; activity change, negative = inhibition, % (concentration not given with the values); 390,000 compounds, 0.02% hits; in the data active means activity change below about -50%; inconclusive means about -30% to -50%; inactive means above about -30%;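 note: stimulus is agonist 54-4 at its EC80 concentration; % is set by controls: 0 for no effect and ±100 for the full control effect; the text of the record puts the active cut at -80%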
Target sequence (Q9GZU1 whole entry, looked up): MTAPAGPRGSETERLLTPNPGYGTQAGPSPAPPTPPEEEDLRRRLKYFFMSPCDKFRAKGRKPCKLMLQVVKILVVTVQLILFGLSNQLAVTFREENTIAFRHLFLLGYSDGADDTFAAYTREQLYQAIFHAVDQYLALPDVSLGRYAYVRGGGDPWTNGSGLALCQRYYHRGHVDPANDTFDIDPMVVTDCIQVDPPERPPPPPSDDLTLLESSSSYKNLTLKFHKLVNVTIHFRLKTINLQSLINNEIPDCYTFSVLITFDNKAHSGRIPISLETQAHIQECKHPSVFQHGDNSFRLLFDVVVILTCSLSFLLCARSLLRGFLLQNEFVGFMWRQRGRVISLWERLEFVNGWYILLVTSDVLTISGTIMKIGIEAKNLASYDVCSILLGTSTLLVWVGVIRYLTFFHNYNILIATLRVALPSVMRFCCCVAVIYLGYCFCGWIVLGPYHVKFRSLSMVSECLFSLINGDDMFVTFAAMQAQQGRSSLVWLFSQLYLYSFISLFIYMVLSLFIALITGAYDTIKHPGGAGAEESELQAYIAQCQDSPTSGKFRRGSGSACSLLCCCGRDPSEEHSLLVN
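Calcium fluorescence in TRPML1-DL cells induced overnight with Tet: a 110 s read after compound pin addition, then a 110 s antagonist read after challenge with 54-4 at 4 uM final (EC80).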
TRPV1 PAM: enhances activation of the human vanilloid receptor TRPV1 | Q8NER1 | TRPV1-expressing cells, Fluo-8 calcium influx, capsaicin EC20 potentiation; host cell line not named in the record; control for the full effect not named in the record | potentiation, % at 8.33 µM | 320,000 compounds, 0.02% hits | AID 540277; active means potentiation above 80%; inconclusive means 30% to 80%; inactive means below 30%; note: 0% is about no effect
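TRPV1-expressing cells were cultured overnight at 35.5C and loaded with Fluo-8 calcium dye for 40 to 90 min at room temperature. After a 10 s baseline, compound was added and calcium influx was read kinetically for 3 min (ex 480/em 520 nm).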
ClpP mod: qHTS Assay for Activators of ClpP; purified B. subtilis ClpP, FRET peptide cleavage, 20 min; Potency, µM (doses to about 57.5 µM), for the others: top-dose activity change, negative = active; 340,000 compounds, 1.9% hits; AID 651965, 2013; active = well fitted falling curve with a large enough effect; inconclusive = small, poorly fitted or top-dose-only effect; inactive = no such curve, though single readings can be large or run the other way; note: potency is the fitted concentration of half-maximal effect; the source files actives as falling curves though it sought activators and does not explain the sign; nearly all actives have a fitted effect of over 65% in size; many hits overshoot -100%
Target sequence (P80244 whole entry, looked up): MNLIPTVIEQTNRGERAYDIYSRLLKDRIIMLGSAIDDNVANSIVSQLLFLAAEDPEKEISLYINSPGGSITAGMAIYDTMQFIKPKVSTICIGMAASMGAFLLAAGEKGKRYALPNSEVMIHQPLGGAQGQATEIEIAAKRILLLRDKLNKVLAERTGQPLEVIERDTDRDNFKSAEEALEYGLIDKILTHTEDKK
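Buffer: 100 mM Tris/HCl pH8, 100 mM KCl, 0.05% low protease BSA, 2.5% glycerol, 0.01% Tween-20. ClpP 10 microg/mL final; 20 min RT; delta FRET normalized to ADEP and DMSO controls.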
Menin MLL FP FL: displaces fluorescein MLL peptide from human menin; Fluorescence polarization, fluorescein-MLL peptide displacement from menin; 290,000 tested, under 10 active; AID 1766; FP activity change, % at 61.4 µM; inconclusive = falling polarisation curve, or a change in total fluorescence; inactive = total fluorescence flat and polarisation flat or rising; no compound was filed as active; the % refers to the polarisation; negative = inhibition;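 note: % of control where 0% means no effect; inhibitors lower the polarisation; unlabelled MLL peptide was the positive control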
TRPML1 ag: activates the human TRPML1 channel. 410,000 compounds, 0.12% hits. AID 624414. activation, % (no concentration beside the values). Q9GZU1. TRPML1-expressing cells, Ca2+ dye fluorescence, FDSS; host cell line not named in the record; reference of the full effect not given here; in the data active = activation above about 50%; inconclusive = about 30% to 50%; inactive = below about 30%; note: 0% is about no effect; the text of the record puts the active cut at 80%
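Kinetic FDSS Ca2+ read in Tet-induced TRPML1-DL cells (ABD Ca8 dye plus quencher, 45-90 min RT loading): baseline, then compound, then 110 s agonist window; EC80 agonist 54-4 at 4uM final added afterwards for a 110 s antagonist window.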
PINK1 expr mod: modulators of PINK1 expression; AID 624263; 410,000 compounds, 0.2% hits; PINK1 immunofluorescence, high-content cytometry, 24 h; Potency, µM (titrated, usually from 76.6 µM), for the others: at the highest dose activation (PINK1 increase), actives largely listed as activators; active = well fitted activation curve with a large enough effect; inconclusive = small, poorly fitted or top-dose-only effect; inactive = flat fitted curve, though single readings scatter; cell line not stated here;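 note: potency is the fitted concentration of half-maximal effect; % of control where 0% means no effect; nearly all actives have a fitted effect of over 65% in size; a mitochondrial uncoupler was the plate control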
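Measures PINK1 amount and localization on or inside mitochondria by immunofluorescence. Stable cells get compounds at 5 concentrations for 24 hours before fixation and staining; CCCP controls included.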
Sfp PPTase inh: blocks B. subtilis Sfp PPTase activity. Q9F4F7. Biochemical Sfp PPTase activity, qHTS. Potency, µM, for inactives: max response, negative = inhibition, most hits filed as inhibitors. 310,000 compounds, 3.5% hits; active = well fitted inhibition curve with a large enough effect; inconclusive = small, poorly fitted or top-dose-only effect, or another doubt; inactive = no such curve, though single readings can be large or run the other way;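 note: the enzyme is Sfp with the accession as filed and its product quenches rhodamine fluorescence; potency is the fitted concentration of half-maximal effect; 0% = enzyme reaction without inhibitor and -100% = no enzyme wells; top concentration of the series not given in the record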
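After 15 min at room temperature with compound, 15 nM Sfp received 5 uM rhodamine-CoA plus 12.5 uM BHQ-2-ybbR (50 mM Hepes pH 7.6, 10 mM MgCl2). Rate came from the fluorescence difference over 30 min, ex 525/em 598 nm.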
Numbers without * were called inactive; ? = inconclusive; nt = not tested or not shown; & = joins results of further samples; [ ] = remark or other dose.

compound,TRPML1 inh,TRPV1 PAM,ClpP mod,Menin MLL FP FL,TRPML1 ag,PINK1 expr mod,Sfp PPTase inh
COc1ccc(N2CCN(CCCNC(=O)c3cc4sccc4n3C)CC2)cc1,-15,12,-9.3%,2.1,1.0,-1.2%[38.3 µM],10%
COc1ccc(S(=O)(=O)Nc2ccc3c(c2)CCCN3S(=O)(=O)c2ccc(C)cc2)cc1F,37,nt,-1.0%,nt,-0.4,0.7%,nt
Cc1cccc(NC(=O)COc2ccc(/C=N\n3cnnc3)cc2)c1,-1,-8,-2.7%,-2.0,0.0,-1.0%,-11%
COc1cc(NC(=O)C2CCCN(S(=O)(=O)c3cn(C)cn3)C2)cc(OC)c1 (configuration not stated),?,nt,-2.7%,nt,2.2,0.1%,nt
COc1ccc(NC(=O)C(c2ccccc2)N2Cc3ccccc3C2=O)cc1 (configuration not stated),17,nt,-1.3%,nt,-0.5,0.4%,nt
CC1CC(C)CN(CCCNC(=O)CCC(=O)N2CCOc3ccccc32)C1 (configuration not stated),-2,-18,-1.2%,1.9,0.3,-1.9%,17%
CCc1nc2ccc(C(=O)Nc3cccc(OCC(=O)N(C)C)c3)cn2c1N(CC)CCN(C)C,nt,nt,0.8%,nt,-0.5,0.2%,nt
O=C(CNC(=O)c1sc2ccccc2c1Cl)OCc1ccccc1,6,0,0.6%,nt,-0.2,4.2%,-4%
CCOC(=O)Cc1csc(N/N=C/c2ccc(Cl)cc2)n1,8,16,0.1%,1.0,-0.6,2.2%,-6%
CC(C)CCNC(=O)C1CC(c2ccccc2C(F)(F)F)=NO1 (configuration not stated),-5,16,-1.4%,-0.6,0.1,1.1%,12%
Cc1ccc(CCNC(=O)C2CCCN(c3ncnc4c3nc3n4CCCCC3)C2)cc1 (configuration not stated),-2,-9,0.3%,-2.9,0.1,-1.3%,14%
CC(Oc1ccc(Cl)cc1Cl)c1nc(-c2ccccn2)no1 (configuration not stated),-1,16,0.3%,1.3,-0.6,3.4%[38.3 µM],3%
CCOC(=O)[C@]12CCCC=C1N(Cc1ccc3c(c1)OCO3)C(=O)[C@H](CC(=O)NCCCN1CCCC1=O)C2,nt,nt,-5.3%,nt,-0.2,-1.1%,nt
CN1C2C=C(N(CCc3c[nH]c4ccccc34)C(=O)c3ccc(Cl)cc3)CC1CC2 (configuration not stated),0,nt,0.7%,-0.2,2.1,3.6%,-5%
C=CCSc1nnc(NC(=O)c2ccc3c(c2)OCCO3)s1,-2,nt,-3.9%,nt,0.6,11%,nt
CCOC(=O)NCc1ccc(Cl)c(Cl)c1,-10,-7,5.8%,3.1,-1.1,-0.3%,10%
CCN(C(=O)Cn1cnc2onc(-c3ccc(F)cc3)c2c1=O)c1ccc(OC)cc1,-8,nt,-0.1%,nt,1.1,-4.5%,nt
CCCSc1ncc(Cl)c(C(=O)Nc2nc3ccc(OCC)cc3s2)n1,12,nt,5.2%,nt,0.5,0.6%,nt
Cc1cccc(NC(=O)C2CCN(S(=O)(=O)c3c(C)[nH]c(=O)[nH]c3=O)CC2)c1,-5,9,-1.1%,3.7,-0.3,2.5%,-12%
CC(C)OC(=O)N(C)c1ccc(C(O)(C(F)(F)F)C(F)(F)F)cc1,5,-3,1.0%,2.7,0.6,-5.6%[38.3 µM],10%
COc1cc(-c2[nH]ncc2CN2CCSCC2)cc(OC)c1OC,1,3,nt,-0.6,0.7,8.7%,12%
Cc1cnc(C(=O)OC(C)C(=O)NC2CCCc3ccccc32)cn1 (configuration not stated),10,-15,nt,nt,0.6,1.8%,nt
O=[N+]([O-])c1ccc(OCc2cnc(Cl)s2)c([N+](=O)[O-])c1,10,17,nt,-0.6,1.5,0.2%,-21%
Cc1noc(C)c1NC(=O)N(C)C[C@H]1Oc2c(NS(=O)(=O)c3cn(C)cn3)cccc2C(=O)N([C@H](C)CO)C[C@@H]1C,6,nt,-19%,nt,0.4,-0.6%,nt
Cc1ccc(C(C)C)c(OCCNS(C)(=O)=O)c1,-7,1,0.0%,2.8,-0.1,1.1%,26%
CN(C)S(=O)(=O)c1ccc(C(=O)OCc2nnc(-c3ccccc3)o2)cc1,34,6,nt,-2.3,1.7,2.7%,0%
O=C(COC(=O)C1=Cc2ccccc2OC1)NCc1ccccc1,-5,-5,-6.4%,nt,0.5,8.5%,nt
Cc1cc(SCc2ccccc2F)nc(=O)[nH]1,31,2,2.4%,12,0.7,1.9%,11%
Cc1cc(C(=O)Nc2nc3c(s2)CCCC3)no1,6,-26,-0.6%,1.3,-0.8,-2.4%,10%
Cc1ccc(SCC(=O)OCC(=O)NCc2cccs2)cc1C,-20,-14,nt,nt,1.3,-0.1%,nt

More results.
compound,TRPML1 inh,TRPV1 PAM,ClpP mod,Menin MLL FP FL,TRPML1 ag,PINK1 expr mod,Sfp PPTase inh
C=CCn1c(C)nnc1SCC(=O)NC1CCCCC1,-4,-2,-2.5%,nt,-0.2,-0.5%,-8%
Cn1cnnc1SCc1ccc(C#N)cc1,15,-2,1.3%,0.3,0.8,-1.3%,6%
Cc1nn2c(N3CCN(CCO)CC3)c3c(nc2c1-c1ccccc1)CCCC3,-10,-18,nt,-0.2,1.0,-0.9%,-1%
CCc1ccccc1NC(=O)c1cnc2sc(N3CCCC3)nn2c1=O,10,nt,-4.3%,nt,1.2,0.4%,nt
COCCCNC(=O)Cn1c(=O)n(-c2cccc(C)c2)c(=O)c2c3c(sc21)CN(C(C)=O)CC3,15,nt,1.1%,nt,0.4,0.5%,nt
COc1ccc(/C=N/Nc2ccccn2)cc1OC,-18,11,nt,-3.0,-0.3,0.7%,56µM*
CC(OC(=O)C1CCCCC1)C(=O)Nc1ccc(S(N)(=O)=O)cc1 (configuration not stated),-3,-60,0.6%,nt,-0.3,3.7%,nt
COc1ccc(-c2cnc(NCc3cc4c(cc3[N+](=O)[O-])OCO4)n2C)cc1,-5,11,2.6%,2.6,0.0,3.6%,50µM*
Cc1nc(-c2ccccc2)[nH]c(=O)c1Oc1ccc(Cl)cc1Cl,-5,-6,-2.2%,4.2,0.1,0.1%,17%
CCN(CC)C(=O)c1sc(NC(=O)c2cccs2)c(C#N)c1C,3,-6,nt,-4.5,0.0,-2.2%,7%
CCOC(=O)Nc1ccc(S(=O)(=O)N(C)C(C)C)cc1,11,-25,-1.1%,-1.0,-1.0,-0.5%,1%
CCCN(CC(=O)Nc1ccccc1C)C(=O)c1ccc(C(=O)c2ccccc2)cc1,44,20,-0.9%,nt,0.7,7.3%,nt
C/C(CCN1CCc2nc(-c3ccccc3)c(-c3ccccc3)cc2C1)=N\OC[C@@H](C)[C@H](OCc1ccccc1)C(C)C,4,-4,-13%,3.8[11.7 µM],-0.5,13%,0%&-9%
Cc1cccc(C)c1NC(=O)CCSc1nc(-c2ccc3c(c2)OCO3)cc(C(F)(F)F)n1,-17,nt,3.7%,nt,1.9,1.1%,nt
CC(=O)Oc1ccc(/C=N\NC(=O)c2cc3c(ccc4ccccc43)o2)cc1,-8,15,2.9%,nt,0.7,2.9%,2%
COc1ccc(S(=O)(=O)NCC(c2ccc(N(C)C)cc2)N2CCc3ccccc32)cc1F (configuration not stated),4,nt,-12%,nt,-0.6,1.4%,nt
O=S(=O)(c1ccccc1)N1CCN(C(=S)NCCCN2CCOCC2)CC1,-4,-1,nt,-1.8,0.2,-0.6%,-26%
CCC(Oc1ccccc1)C(=O)Nc1nc2ccccc2[nH]1 (configuration not stated),8,5,-2.8%,-1.2,0.3,0.6%,17%
CC(=O)N(c1ccccc1)c1ccccc1[N+](=O)[O-],18,nt,1.8%,nt,-0.4,-0.2%,nt
Cc1ccc(NC(=O)C(=O)NCCN2CCN(C(=O)C(c3ccccc3)c3ccccc3)CC2)cc1,-3,-7,1.9%,0.2,0.8,-2.5%,19%
O=C(Cc1cccc(NC(=O)C2CCN(C(=O)C3CCC3)CC2)c1)Nc1cccc(C(=O)N2CCCC2)c1,61,-8,-0.5%,nt,0.8,-0.1%,nt
O=C(Cn1ncc2c3ccccc3n(Cc3ccccc3F)c2c1=O)NCCN1CCOCC1,-1,2,-26%,1.1,0.2,-0.4%,4%
Cc1noc(C)c1C(=O)N1CCCC(Nc2ccc(C(C)C)cc2)C1 (configuration not stated),13,-3,-2.9%,-3.8,-0.6,-0.7%,1%
CN1CCN(C(=O)/C(=C/c2cn(S(=O)(=O)N(C)C)c3ccccc23)NC(=O)c2ccccc2F)CC1,13,-5,-0.6%,nt,0.4,1.3%,-3%
Cc1cccc(C(=O)N2CCN(c3ncnc4c3cnn4-c3ccccc3)CC2)c1,15,-8,116%,4.6,1.2,0.9%,6%
Cc1cc(NC(=O)CSCC(=O)OCC(=O)c2ccc(Br)cc2)no1,33,nt,1.6%,nt,-1.4,2.4%,nt
O=S(=O)(O)c1cccc2cccc(Nc3ccccc3)c12,14,nt,-19%&-26%,nt,0.0&-0.3,0.0%&1.0%,nt
S=c1[nH]nc(-c2ccccc2)n1-c1ccccc1,nt,nt,-12%,nt,-0.2,-0.7%,nt
N#Cc1ccccc1OCC(=O)NNC(=O)CCC1CCCC1,-8,nt,0.4%,nt,-0.7,-0.3%,nt
O=C(CNC(=O)c1ccccc1)c1ccccc1,10,-33,2.2%,nt,0.0,0.6%,nt

Next results.
compound,TRPML1 inh,TRPV1 PAM,ClpP mod,Menin MLL FP FL,TRPML1 ag,PINK1 expr mod,Sfp PPTase inh
O=C(CSc1nc2ccccc2c(=O)[nH]1)Nc1ccc(C(=O)O)cc1,-22,-15,nt,1.2,-0.6,2.9%,23%
CCOC(=O)COc1ccc(CC)cc1C(=O)c1ccn2nc(-c3ccc(F)cc3)cc2n1,-6,nt,-11%,nt,0.2,8.1%,nt
Cc1cccc(N2C(=O)c3cccc(Oc4ccc(Cl)cc4)c3C2=O)c1,11,9,-2.7%,0.7,6.6,0.6%,3%
CC1CCCN(S(=O)(=O)c2ccccc2[N+](=O)[O-])C1 (configuration not stated),2,-5,-2.4%,3.5,-0.1,1.3%,16%
CCN(CC(=O)Nc1ccc2c(c1)OCCO2)C(=O)CCOc1ccccc1,4,4,-1.5%,nt,0.1,-1.2%,nt
CC(=O)c1ccc(OC(=O)c2ccc(Br)o2)cc1,6,5,-2.8%,2.3,0.7,-2.0%,-6%
COc1ccc(C(=O)C2CCCN(C(=O)c3cccc(Cn4cccn4)c3)C2)cc1F (configuration not stated),-9,-1,-0.4%,nt,0.4,-0.9%,20%
